High-throughput results as filed in PubChem.
CapD inh: inhibitors of Bacillus anthracis CapD enzyme | z-score (concentration not given with the values) | AID 492967 | 140,000 tested, 0.23% active | purified CapD enzyme, fluorescence intensity read-out; hits give low values; some hits fall short of the stated cut;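 active = z-score under -4 in either of two replicates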;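 note: stock transfer was 100 nL into about 40 µL; score is relative to mean and spread of the plate; one replicate is shown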
AID504770: E. coli YBA685 growth inhibition, screen for V. cholerae RctB inhibitors; E. coli YBA685 rctB-dependent plasmid, OD600 growth, 3 h; hits give low values; 130,000 tested, 0.27% active; AID 504770; z-score (test concentration not listed);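 active = z-score under -2 on both plates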;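 note: wells of about 30 µL received 100 nL stock; score is relative to mean and SD of the test wells; the first replicate is given; strong numbers were not always called active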
The depositor's hits bear a star; / = no result given. Rows are unselected; 0.39% or so of the library scored in one or more.

molecule	CapD inh	AID504770
COc1ccc(C2=NN(C(=O)c3ccccc3Cl)C(c3cccc([N+](=O)[O-])c3)C2)cc1 (stereo not given)	-0.47	/
CN(C)CCOc1nc(-c2ccccc2)nc2c1oc1ccccc12	0.28	2.4
CCOC(=O)C1=C(CSc2nc3c(cc2C#N)CCCCC3)OC(N)=C(C#N)C1c1ccc(SC)cc1 (stereo not given)	0.15	/
C=CCNC(=O)c1ccc2c(c1)N(CC)C(=O)c1ccccc1S2	0.28	-1
CCN1CCN(CCCNC(=O)Cc2ccc(NC(=O)N3CCCCc4ccccc43)cc2)CC1	0.34	-0.5
CCOC(=O)C1=C(C(=O)OCC)SC(=C2C(=S)C(C)(C)N(C(=O)Cc3ccccc3)c3cc(C)ccc32)S1	0.78	/
O=C(CCSc1ccccc1)NC1CC1	0.21	-1.6
COc1ccc(Cn2ccc3nc(C)c(C(=O)N4CCN(C)CC4)cc3c2=O)cc1	11	-0.1
CCCCn1c(Cc2ccccc2)nnc1SCC(=O)OCC	/	2.6
Cc1ccccc1NC(=O)CC1COc2ccccc2O1 (stereo not given)	/	-0.4
O=C1Nc2ccc(Br)cc2C12OCCO2	0.08	/
CC(NC(=O)c1cccs1)C(C)(C)C (stereo not given)	0.025	-0.6
O=C(NCCO)c1ccc(N2C(=O)c3ccccc3C2=O)cc1	0.55	-0.45
CN(C)/C=C/C=C1\CC/C(=C\C=C\N(C)C)C1=O	-7.3*	0.95
CCOC(=O)/C=C(\C)N1N=C(c2ccccc2)CC1c1ccccc1[N+](=O)[O-] (stereo not given)	-0.36	/
COc1ccc(C(=O)CSc2nc3ccccc3[nH]2)cc1	-0.67	-0.25
Cc1ccc2nc(-c3ccc(NC(=O)C(C)N4CCN(C(=O)c5ccco5)CC4)cc3)sc2c1 (stereo not given)	/	2.2
CC(COC(=O)N1CCN(c2ccc(C(F)(F)F)cn2)CC1)c1ccccc1 (stereo not given)	1.6	/
CCc1ccc(NC(=O)C2CCN(c3ncccn3)CC2)cc1	/	0.25
CCCCOC(=O)COc1cc(C)cc2oc(=O)c3c(c12)CCCC3	4.5	/
O=S(=O)(Nc1nc(SCc2ccc(Cl)cc2)n[nH]1)c1ccc(F)cc1	0.48	-1.2
N#CCCC(=O)c1ccccc1	0.74	-1.1
O=C(CSc1nc2cc(Cl)ccc2s1)Nc1ccccc1Cl	-0.55	0.75
O=C(Cn1[nH]c(=O)c2ccccc2c1=O)Nc1cccnc1	/	0.85
O=C(Cn1nnc2ccccc2c1=O)NCCOc1nnnn1-c1cccs1	0.52	-0.05
Cc1nc(SCC2=C(C(=O)OC(C)C)C(c3cccc(F)c3)C(C#N)=C(N)O2)c(C#N)c(C)c1C (stereo not given)	0	/
CC(=Nc1ccc(S(=O)(=O)N2CCOCC2)cc1)Nc1ccc(C(=O)O)c(O)c1	12	2
CCOc1cc(/C=C2/SC(=S)N(C)C2=O)cc(Br)c1O	-0.065	1.9
O=C(O)c1cc2sccc2nc1C(F)(F)F	0.1	/
Cc1nn(-c2ccccc2)c(C)c1/C=N/NC(=O)CCc1ccc(S(=O)(=O)N2CCOCC2)cc1	/	-0.4
Cc1ccc(NC2=NC(=S)N(c3cccc(Cl)c3)C23CCC(C(C)(C)C)CC3)cc1 (stereo not given)	-0.33	/
N#C/C(=C(/O)CSc1ccccc1C(=O)O)c1nc2ccccc2s1	/	-0.55
N=S(=O)(c1ccc(Cl)cc1)c1cccs1 (stereo not given)	-0.03	-0.7
CC1CCCN(C(=O)Cc2cccs2)C1 (stereo not given)	-0.8	-0.9
O=C(OCCc1cccc(Cl)c1)N1CCCN(Cc2ccc(Cl)c(Cl)c2)CC1	-0.12	/
CN(C)C(=O)COC(=O)c1oc2ccccc2c1COc1ccccc1	/	1.4
CN1Cc2ccccc2CC1C(=O)O (stereo not given)	/	-1.1
CC1CCCCN1CCNC(=O)c1ccc2c(Cl)c3c(nc2c1)CCCC3 (stereo not given)	57	0.35
CC(=O)O/N=C(\N)Cc1csc2ccc(Cl)cc12	-1.1	0.15
NC(=Nc1ccccc1)Nc1ccccc1	0.3	/

Structures listed so far that contain a COOH group:
molecule	CapD inh	AID504770
CC(=Nc1ccc(S(=O)(=O)N2CCOCC2)cc1)Nc1ccc(C(=O)O)c(O)c1	12	2
O=C(O)c1cc2sccc2nc1C(F)(F)F	0.1	/
N#C/C(=C(/O)CSc1ccccc1C(=O)O)c1nc2ccccc2s1	/	-0.55
CN1Cc2ccccc2CC1C(=O)O (stereo not given)	/	-1.1

New compounds follow
molecule	CapD inh	AID504770
COc1cc(/C=C2\C(=O)N(c3ccc(Cl)c(C(=O)O)c3)N=C2C)c([N+](=O)[O-])cc1OC	3.4	/
C/C(=N\O)C(=O)C(CN1CCCCC1)CN1CCCCC1	/	0
C=CCN1C(=O)/C(=c2\sc3nc(-c4ccccc4)nn3c2=O)c2ccccc21	40	-1.1
CC1=C(C(=O)OCCc2ccccc2)C(c2ccc(N(C)C)cc2)NC(=S)N1 (stereo not given)	-1.1	0.25
Cc1ccc(-n2nnnc2-c2c[nH]c3cc(Cl)c(F)cc23)cc1	1.5	0.9
CCCCn1c(O)c(N=NC(=O)CNc2ccc(OC)cc2)c2ccccc21	/	0.25
CCS(=O)(=O)c1cccc(C(=O)Nc2nc3c(s2)C(=O)CC(C)(C)C3)c1	/	-1.4
COc1ccc(C=C2C(=O)OC(c3ccccc3)OC2=O)c(OC)c1OC (stereo not given)	-0.62	-1.1
CCOC(=O)Cn1c2ccc(Cl)cc2c2nc3ccccc3nc21	0.76	0.35
Cc1ccc(CC(=O)Nc2ccc(S(=O)(=O)NCc3ccco3)cc2)cc1C	/	-0.3
CCO/C=C1/C(=O)N(c2ccc(S(=O)(=O)N3CCOCC3)cc2)C(=O)c2ccccc21	/	0.6
COc1ccc(OC/C(N)=N/O)cc1	1.4	1.9
Cc1ccc(N(O)C(=O)Nc2ccccc2)cc1	/	-0.4
NC(=O)C1(N2CCCCC2)CCN(C(=O)c2cccc(-n3c(=S)[nH]c4cc(Cl)ccc4c3=O)c2)CC1	-0.12	/
Cc1sc2nc3n(c(=O)c2c1C)NC(=O)CC3	/	-0.45
Cn1c(C(=O)N2CCC(C(=O)O)CC2)cc2sccc21	0	0.55
COc1ccc(-c2c(C)nn(-c3ccccc3)c2NC(C)=O)cc1OC	0.1	-0.8
O=C(N1CCN(c2ccccc2)CC1)n1ccnc1	/	0
COc1ccc(S(=O)(=O)NCc2ccco2)cc1OC	-0.04	0.25
O=C(c1sccc1Br)N1CCN(Cc2ccc3c(c2)OCO3)CC1	0.28	-0.2
Cc1ccc(/C=N/n2c(-c3ccc(Cl)cc3)csc2=NCC2CCCO2)o1 (stereo not given)	/	-0.25
O=C(c1ccc([N+](=O)[O-])cc1)N1N=C(C(F)(F)C(F)(F)C(F)(F)F)CC1(O)c1ccccc1 (stereo not given)	0.045	/
CN1C(=O)/C(=C/C=C2/CCCN2C)N(C)C1=S	/	-0.55
CC(=O)NS(=O)(=O)c1ccc(NC(=O)C2CC(=O)N(c3ccc(F)cc3)C2)cc1 (stereo not given)	/	0.6
CS(C)=C1C(=O)NC(=O)N(CCc2ccc(F)cc2)C1=O	0.71	1.2
Cn1nc(C(F)(F)F)c(/C=N/OC(=O)c2cccc(C(F)(F)F)c2)c1Cl	-0.62	/
CCc1ccc2c(c1)C(NC(C)=O)C(=O)N2 (stereo not given)	0.01	-0.65
COc1ccc(Oc2ccc(/C(N)=C/C#N)cc2)cc1	-0.77	-2
C[n+]1ccc(-c2cc[n+](C)cc2)cc1	-0.27	-2
O=C1CC(c2ccc3c(c2)OCCO3)Oc2ccccc21 (stereo not given)	0.42	0.3
Cc1ccc(OCCN2CCN(c3ncnc4scc(-c5ccccc5)c34)CC2)cc1	0.06	1.6
Cc1cccc(Oc2coc3cc(OC(=O)c4cccnc4)ccc3c2=O)c1	0.67	-0.25
O=C(CSC1=NNC(=O)C1C1CC1)Nc1cccc(Br)c1 (stereo not given)	/	-0.1
CN1C(=O)CCN(C=O)c2ccccc21	0.81	1
CC(Sc1ccc(Cl)cc1)C(=O)NCc1ccc2c(c1)OCO2 (stereo not given)	-0.12	-0.55
COc1cccc(CN2NS(=O)(=O)c3ccccc3C2=O)c1	/	-0.45
C=CCN1C(=O)/C(=C/c2cn(C(C)CC)c3ccccc23)C(=O)NC1=S (stereo not given)	0.12	-0.05
CCC(C)(C)C1CCc2c(sc(NC(=O)c3c(-c4ccccc4Cl)noc3C)c2C(N)=O)C1 (stereo not given)	0.38	/
CC(=O)Oc1ccc(C(=O)COc2ccc(F)cc2)c(O)c1C	/	1.2
COC(=O)/C(=C\Nc1cc(F)ccc1F)c1ncc(C(F)(F)F)cc1Cl	0.13	/
O=c1cccc2n1CC1CC2CN(c2nc(N3CCOCC3)nc(N3CCOCC3)n2)C1 (stereo not given)	1.3	/
C=Cn1cccc1-c1ccc(OC)cc1	1.8	-0.55
COc1ccc(-n2nc3c(c2NC(=O)C2(c4ccc(Cl)cc4)CCCC2)CS(=O)(=O)C3)cc1	-0.18	/
Cc1cc(C)c(C)c(S(=O)(=O)NCC(c2ccccc2)c2ccccc2)c1C	0.53	/
O=C(NNC(=O)c1cccc(O)c1)OC/C=C/COCc1ccccc1	-0.67	/
O=C(O)CCC(=O)Nc1ccc(S(=O)(=O)N2CCCC2)cc1	-0.57	-0.1
CC1CC(C)CN(S(=O)(=O)N2CCCC(C(=O)NC3CCCC(C)C3C)C2)C1 (stereo not given)	37	-0.75
O=C(c1cccs1)N1CCC(c2c[nH]c3ccccc23)CC1	-0.88	/
Cc1ccccc1OCC(O)CN1C(=O)N(CN2C(=O)N(CC(O)COc3ccccc3C)C(=O)C2(C)C)C(C)(C)C1=O (stereo not given)	0.29	-0.55
Cc1cc(C(=O)NC2CCCC2)c2ccccc2n1	/	-0.2

Three entries picked at random from those above:
molecule	CapD inh	AID504770
Cc1cc(C)c(C)c(S(=O)(=O)NCC(c2ccccc2)c2ccccc2)c1C	0.53	/
O=C(c1cccs1)N1CCC(c2c[nH]c3ccccc23)CC1	-0.88	/
C=Cn1cccc1-c1ccc(OC)cc1	1.8	-0.55

Remaining list, next part
molecule	CapD inh	AID504770
COc1cccc(-n2cc(C(=O)NCCC(C)C)c3ccccc3c2=O)c1	6.2	2.2
CCOc1ccc(Nc2oc(Cc3ccccc3)nc2C#N)cc1	-0.24	1.2
O=C1CSC(c2ccccc2)N1Cc1ccccc1 (stereo not given)	-0.05	0.15
CCOC(=O)Cn1nc2sc3ccccc3n2c(=O)c1=O	8.5	-0.2
O=C(NC1CCN(CC(=O)N2CCOCC2)CC1)C1CCCCC1	/	0.75
CCc1ccc(-c2ccc(C(=O)N3CCN(c4ccncc4)CC3)cc2)cc1	-0.36	/
CCOc1cc(C2C(C#N)=C(N)Oc3n[nH]c(-c4ccc(Br)cc4)c32)ccc1OC(=O)N1CCOCC1 (stereo not given)	-0.2	/
CCC1NC(=O)c2cc(S(N)(=O)=O)c(Cl)cc2N1 (stereo not given)	1.3	/
CC(Sc1nc(N)cc(=O)[nH]1)C(=O)Nc1cccc(Cl)c1 (stereo not given)	-0.03	-0.1
O=C(NCCc1ccc(S(=O)(=O)N2CCCC2)cc1)c1cccs1	0.79	0.2
Cc1ccc(N2C(=O)/C(=C\c3ccc(-c4ccccc4C(=O)O)o3)C(=O)NC2=S)cc1	3	/
Oc1c(CN2CCN(c3ccccc3)CC2)cc(Cl)c2cccnc12	-0.62	-0.65
COc1cccc(C2CCCCN(C)C2=O)c1 (stereo not given)	0.17	/
N#CC(C#N)C(c1ccccc1)c1c(O)[nH]c(=S)[nH]c1=O (stereo not given)	/	-0.35
CCCCn1c(C)c(C(=O)OCC)c2cc(OC(=O)c3ccc(F)cc3)c3ccccc3c21	-0.06	/
Cc1ccccc1-c1nnc(CN2CCc3ccccc32)o1	-0.015	-0.15
C=CCN(CC=C)C(=O)C[n+]1ccc(/C=N/O)cc1	-0.35	0.3
CC(=O)Nc1c(O)c2ccccc2[nH]c1=O	/	-0.2
COC(=O)c1sc(SC)c(-c2ccon2)c1C	1.2	1.3
Nc1ccc(Cc2ccncc2)cc1	0.56	-0.35
CC(CN1CCCCC1)OC(=O)c1ccco1 (stereo not given)	0.04	-1
CCCNC(=O)c1ccc(COc2ccc(C)cc2)o1	-0.15	-0.45
CCOC(=O)NN1C(=O)c2ccccc2NC1c1ccc(OC)cc1 (stereo not given)	-0.57	-0.65
O=C(NC(Cc1ccccc1)C(=O)NCc1ccco1)c1ccccc1 (stereo not given)	/	-0.05
COc1ccc(C2CC(=O)C3=C(C2)NC(=O)CC3c2ccc3c(c2)OCO3)cc1 (stereo not given)	0.84	0.05
